NS1 inh: qHTS Assay for Inhibitors of Influenza NS1 Protein Function | S. cerevisiae slowed by influenza A NS1, growth recovery by OD600 | Potency, µM (series often up to 46.1 µM), for inactives: top-dose activity, positive = more growth | 270,000 tested, 0.4% active; active means well fitted rising curve with a large enough effect; inconclusive means small, poorly fitted or top-dose-only effect; inactive means no such curve, though single readings can be large or run the other way; note: nearly all actives have a fitted effect of over 50% in size
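Growth recovery, yeast-based: influenza A NS1 expressed in S. cerevisiae causes slow growth, and suppressors are detected by OD600. The parent strain without NS1 is used as positive control.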
RE007 growth inh: qHTS Assay for Inhibitors of the HIV-1 protein Vpr; S. pombe RE007 Vpr strain, BacTiter-Glo ATP luminescence, 24 h; control for the full effect not named in the record; Potency, µM (titrated, usually from 92.2 µM), inactives show at the top dose activity change, negative = less growth; 360,000 tested, 0.21% active; AID 651644, 2012; active = well fitted falling curve with a large enough effect; inconclusive = small, poorly fitted or top-dose-only effect; inactive = no such curve, though single readings can be large or run the other way;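 note: % is set by controls: 0 for no effect and ±100 for the full control effect; nearly all actives have a fitted effect of over 50% in size; the assay follows cell death caused by Vpr and the record does not say whether a fall means rescue or toxicity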
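Fission yeast RE007 carrying one integrated HIV-1 vpr copy, seeded at OD 0.01 in PMG+AL medium with 23 nL pinned compound. Grown 24 h at 30 degrees; viability read by BacTiter-Glo luminescence after 5 min.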
Marburg entry inh: qHTS for inhibitors of binding or entry into cells for Marburg Virus | 300,000 tested, 1.8% active | Marburg virus pseudotyped entry inhibition, cell reporter; control for the full effect not named in the record; about a third of the inactives were read at about 46 µM | AID 540276, 2011 | Potency, µM (titrated, usually from 37.8 µM), for inactives: top-dose activity change, negative = inhibition, most hits filed as inhibitors; active = well fitted inhibition curve with a large enough effect; inconclusive = small, poorly fitted or top-dose-only effect, or effect the other way; inactive = flat fitted curve, though single readings scatter; tested in HEK293 cells; about a fifth of its hits are not listed in these tables; note: % is set by controls: 0 for no effect and ±100 for the full control effect; luciferase read-out
SARS PLpro yeast: qHTS of Yeast-based Assay for SARS-CoV PLP | S. cerevisiae expressing SARS-CoV PLpro, growth rescue; control for the full effect not named in the record | Potency, µM (doses to about 32.9 µM), inactives show at the highest dose activity, positive = growth rescue | 330,000 tested, 0.19% active; active means well fitted rising curve with a large enough effect; inconclusive means small, poorly fitted or top-dose-only effect; inactive means no such curve, though single readings can be large or run the other way; note: 0% is about no effect; nearly all actives have a fitted effect of over 55% in size; growth read by luminescence after 48 h
Cruzain Triton: qHTS Assay for Promiscuous and Specific Inhibitors of Cruzain (with detergent) | Cruzipain (Trypanosoma cruzi), P25779 | purified cruzain, Z-FR-AMC fluorescence, 0.01% Triton | Potency, µM, for inactives: max response, negative = inhibition, usual class: inhibitors | 200,000 tested, 0.43% active | AID 1478, 2009;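 note: plate controls were neutral wells for no effect and buffer without enzyme for full effect; nearly all actives have a fitted effect of over 40% in size; top concentration of the series not given in the record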
Target sequence (P25779 123-467 limits assumed): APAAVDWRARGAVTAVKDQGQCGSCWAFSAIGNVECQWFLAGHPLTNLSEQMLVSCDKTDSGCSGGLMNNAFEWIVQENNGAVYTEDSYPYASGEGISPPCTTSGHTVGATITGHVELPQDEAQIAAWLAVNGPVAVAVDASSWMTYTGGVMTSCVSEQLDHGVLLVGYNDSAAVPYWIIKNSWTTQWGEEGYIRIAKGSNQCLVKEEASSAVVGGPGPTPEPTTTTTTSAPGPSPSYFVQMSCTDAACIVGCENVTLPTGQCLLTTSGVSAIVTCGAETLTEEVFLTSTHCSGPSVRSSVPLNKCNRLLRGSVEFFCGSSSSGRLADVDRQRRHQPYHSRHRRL
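15 min RT preincubation of 1.5 nM cruzain with compound, then 2 uM Z-FR-AMC added; kinetic AMC fluorescence, 60 s delta. Triton X-100 0.01%, pH 5.5.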
StopGo reporter: High Throughput Screening for Foot and Mouth Disease Virus Antivirals; human cells with a luciferase reporter of 2A StopGo recoding; control for the full effect not named in the record; Potency, µM (top dose mostly 57.9 µM), for the others: top-dose signal change, negative = less light; 410,000 tested, 1.2% active; AID 1159524, 2015; active = well fitted falling curve with a large enough effect; inconclusive = small, poorly fitted or top-dose-only effect; inactive = no such curve, though single readings can be large or run the other way; tested in HEK293T cells; note: % is set by controls: 0 for no effect and ±100 for the full control effect; nearly all actives have a fitted effect of over 45% in size; luciferase light after 4 h
Cruzain noTriton: qHTS Assay for Promiscuous and Specific Inhibitors of Cruzain (without detergent); Potency, µM, inactives show max response, negative = inhibition, hits mostly inhibitors; 200,000 tested, 2.3% active; AID 1476, 2009; purified cruzain, Z-FR-AMC fluorescence, no detergent; Cruzipain (Trypanosoma cruzi), P25779;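 note: plate controls were enzyme without inhibitor for no effect and buffer without enzyme for full effect; nearly all actives have a fitted effect of over 40% in size; top concentration of the series not given in the record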
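Purified cruzain at 1.5 nM, pre-incubated 15 min with compound at room temperature in 100 mM sodium acetate pH 5.5, 5 mM DTT, 0.00005% Triton X-100. Reaction started with 2 uM Z-FR-AMC; AMC fluorescence increase over 60 s gives rate.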
LASV entry inh: qHTS for Inhibitors of binding or entry into cells for Lassa Virus; AID 540256, 2011; Potency, µM (highest dose often 37.9 µM), inactives show at the top dose activity change, negative = inhibition, actives largely listed as inhibitors; Lassa virus pseudotype entry inhibition, cell reporter; control for the full effect not named in the record; 300,000 tested, 1.2% active; active means well fitted inhibition curve with a large enough effect; inconclusive means small, poorly fitted or top-dose-only effect, or effect the other way; inactive means flat fitted curve, though single readings scatter; tested in HEK293 cells; note: % is set by controls: 0 for no effect and ±100 for the full control effect; nearly all actives have a fitted effect of over 50% in size; luciferase read-out
Active calls of the source: *; ? = inconclusive; . = no result given; & = joins results of further samples; [ ] = another dose, or the depositor's remark. Unless noted, calls come from the whole dose curve; as a rule, active = well fitted curve in the direction sought with a large enough effect; inconclusive = small, poorly fitted or top-dose-only effect, or another doubt; inactive = no such curve, though single readings can be large; an effect the other way counts as inactive or inconclusive. Potency is the fitted concentration of half-maximal effect. Not a hit list; about 4.7% have a hit in one of these screens.

SMILES | NS1 inh | RE007 growth inh | Marburg entry inh | SARS PLpro yeast | Cruzain Triton | StopGo reporter | Cruzain noTriton | LASV entry inh
COc1ccc(/C=N/Nc2ncnc(Cl)c2N)cc1OC | 1% | . | 0% | -12% | -11% | -12% | 3% | 6%
Cc1cc2occ(CC(=O)N(C)CC(=O)Nc3ccc(F)cc3)c2cc1C | . | 20% | ? | -3% | . | 1% | . | ?
CC(C)NC(=O)Cn1c(SCC(=O)N2CCCc3ccccc32)nc2ccccc21 | -8% | -9% | 0% | -6% | -2.4% | 16% | -2% | 0%
COc1ccc(-n2nc(C(=O)NCC(=O)N3CCCC(C)C3)c3ccccc3c2=O)cc1 (stereo not drawn) | -17% | -7% | ? | 0% | . | 33%[activator] | . | .
C=CCOC(=O)CCCCCCCC | . | -5% | . | -8% | 1.6% | 0% | 7% | .
Cc1nnc(N(Cc2ccco2)C(=O)c2cccc(C#N)c2)s1 | -14% | 3% | 3% | 0% | 6.0% | 0% | 9% | 0%
CCOc1ccccc1NC(=O)c1sc2nc(C)cc(C)c2c1N | . | . | 8%[46.1 µM] | . | -1.3% | -11% | ? | 6%[46.1 µM]
O=c1nc2ccccn2c2ccc(S(=O)(=O)N3CCCCC3)cc12 | 23% | -11% | 1%[46.1 µM] | 1% | . | 6% | . | -8%
NC(=O)NC(c1ccccc1)c1ccccc1F (stereo not drawn) | -5% | 4%[18.4 µM] | 3% | 0% | 0.1% | -10% | -6% | 20%
COC(=O)c1oc2nc(C)cc(C)c2c1N | -15% | 25% | -1% | 1% | -4.3% | 16% | 10% | 14%
Cc1ccccc1NS(=O)(=O)c1ccc(C(=O)NCC2CCCO2)cc1 (stereo not drawn) | . | 4% | -6% | 2% | . | -18% | . | ?
Cc1cc(C)cc(NC(=S)Nc2cccc3ccccc23)c1 | -4% | -5% | . | -2% | . | 17% | . | .
COc1ccc(C(CNC(=O)CNC(=O)c2cc(OC)c(OC)c(OC)c2)N2CCOCC2)cc1 (stereo not drawn) | . | 1% | 15% | 9% | . | -19% | . | 5%
Nc1nc(Sc2c([N+](=O)[O-])cc(C(F)(F)F)cc2[N+](=O)[O-])n[nH]1 | 3% | -9% | ? | 1% | . | -23% | . | ?
CCc1cccc2c(=O)c(C(=O)N3CCCCCC3)c[nH]c12 | -2% | -10% | ? | 3% | 5.5% | -3% | -8% | 1%
CCOc1ccc(C(=O)Nc2ccc(Cl)c(-c3nc4cc(C)cc(C)c4o3)c2)cc1 | . | . | 9%[46.1 µM] | . | -1.2% | 13% | -16% | -16%[46.1 µM]
Cc1nn(CC(=O)Nc2ccc(C(C)C)cc2)c(=O)c2c(C)n(-c3ccc(Cl)cc3)nc12 | . | . | . | . | 2.2% | ? | -2% | 3%[46.1 µM]
Cc1cc(C)c(S(C)(=O)=O)c(Oc2ccc(C(C)(C)C)cc2)n1 | -22% | 15% | ? | 6% | -6.0% | -27% | 20% | ?
COc1ccc(CN(Cc2ccco2)C(=O)COc2ccccc2OC)cc1 | . | . | -20%[46.1 µM] | . | -3.3% | -4% | 0% | -15%[46.1 µM]
COc1ccc(CNC(=O)C2CC(=O)N(C3CCCCC3)C2)cc1 (stereo not drawn) | 13% | -1% | -10%[46.1 µM] | 8% | . | 8% | . | -3%[46.1 µM]
CCC(C(=O)N1CCN(c2cccc(C)c2C)CC1)n1nc(C)c2sc3ccccc3c2c1=O (stereo not drawn) | . | . | 8%[46.1 µM] | . | -3.2% | -4% | -1% | -18%[46.1 µM]
COC(=O)c1c(NC(=O)COC(=O)[C@@H](NS(=O)(=O)c2ccccc2)C(C)C)sc2c1CCC2 | 6% | -19% | ? | 20% | -10% | -25% | -26% | -29%
CC(=O)c1cccc(NC(=S)NCc2ccco2)c1 | 2% | 31% | . | 0% | . | 49%[activator] | . | .
CN(C)CCN1C(=O)C(=O)/C(=C(/O)c2ccc(F)cc2)C1c1ccccc1F (stereo not drawn) | -3% | 0% | -1% | 3% | -6.8% | 20% | -11% | 9%
Cc1cc(C)c(C(=O)CSc2nnc(-c3ccccc3Br)o2)cc1C | -4% | -4% | 10% | -2% | -1.5% | -11% | -15% | 1%
CC(c1ccco1)N(C(=O)C12CC3CC(CC(C3)C1)C2)c1ccccn1 (stereo not drawn) | -16% | 5% | -9% | 18% | -1.0% | 18% | -1% | -5%
CCOc1ccc(Cn2nnc(C(=O)Nc3cccc(SC)c3)c2N)cc1 | . | . | -2%[46.1 µM] | . | -1.1% | 36%[activator] | 3% | 21%[46.1 µM]
COc1ccc(CCNC(=O)COc2ccc(S(=O)(=O)NC(C)C)cc2)cc1OC | . | 6% | -20%[46.1 µM] | -4% | . | -10% | . | ?
Cc1cc(C)cc(N2CCn3c2nc2c3c(=O)n(Cc3ccc(Cl)cc3)c(=O)n2C)c1 | . | . | . | . | -1.3% | -1% | 6% | -4%[46.1 µM]
CC1(C)CC(=O)C(N=Nc2cccc(F)c2C#N)=C(O)C1 | -51% | -1% | 24% | 2% | . | 26% | . | 7%
Cc1cccc2c1-c1sc(C(=O)Nc3nccs3)cc1CO2 | 2% | 1% | . | -19% | -4.0% | 11% | -22% | .
Cc1ccc(C#N)c(=O)n1CC(=O)Nc1ccccc1C(F)(F)F | . | . | 8%[46.1 µM] | . | -5.0% | -4% | 7% | -3%[46.1 µM]
Cc1cc(C)nc(Nc2ccc(O)cc2)n1 | 2% | -6% | -2%[46.1 µM] | -1% | . | 21% | . | 0%[46.1 µM]
CCOc1ccc(S(=O)(=O)N2CCN(C(=O)Cc3ccc(S(=O)(=O)N4CCOCC4)s3)CC2)cc1 | . | 7% | -15%[46.1 µM] | 0% | . | ? | . | -13%
COC(=O)c1ccc(C2/C(=C(\O)c3ccc(OC)c(C)c3)C(=O)C(=O)N2c2cc(C)on2)cc1 (stereo not drawn) | 24% | -14% | ? | -1% | -3.9% | -12% | ? | -14%
Cc1ccc(NC(=O)C(=O)N2CCCC2)cc1Cl | 18% | -7% | 20% | 18% | -3.6% | 66%[activator] | -23% | ?
O=C(CCCN1CCC(n2c(=O)[nH]c3ccccc32)CC1)c1ccc(F)cc1 | . | 0% | . | . | -6.1% | -14% | -3% | .
Cc1ccc(NC(=O)CSCC(=O)Nc2nnc(C3CC3)s2)cc1 | . | -11% | 9% | -4% | . | 6% | . | -2%
OCCN1CCSC1=S | . | -2% | 5% | . | . | -10% | . | 14%
CCOc1ncccc1C(=O)NCc1cccc(OC)c1 | -10% | 4% | 0% | 18% | -0.7% | -6% | 6% | 9%
N=C1SCC(=O)N1c1ccccc1Cl | 1% | 6% | -9%[46.1 µM] | 0% | . | -8% | . | -3%[46.1 µM]
Cc1cc(NC(=O)c2cccc([N+](=O)[O-])c2)no1 | 2% | -16% | 26% | -3% | . | ? | . | -8%
Cc1ccc(NC(=O)c2snc3ccc(Cl)cc23)cc1C | 4% | 1% | 12% | 14% | -1.3% | 60%[activator] | -11% | 6%
CCOC(=O)c1nnc(-c2ccccc2)nc1Sc1ccccc1Cl | 7% | 19% | ? | -3% | -4.0% | 25µM* | 7% | -21%
Cc1cc(C(=O)COc2ccc(F)cc2Br)c(C)n1C1CC1 | . | -15% | -15% | -4% | . | 3% | . | -10%
CC(=O)N(Cc1ccccc1)c1ccc(C(=O)O)cc1 | 1% | 14% | 18%&18%[46.1 µM] | 1% | 1.1% | 7% | 2% | -3%
COc1cc(CC(=O)O)c([N+](=O)[O-])cc1OC | 7% | -5% | . | 0% | . | 3% | . | .
CCN(CC)CCn1c2c(c(SCC(=O)Nc3cc(OC)cc(OC)c3)nc1=O)CCC2 | . | -4% | ? | -7% | . | 0% | . | 22%
CCOC(=O)c1ccccc1NC(=O)CCc1nc(-c2ccc(C)cc2)no1 | . | . | -15%[46.1 µM] | . | -5.3% | 3% | 5% | 16%[46.1 µM]
O=C(NC(=S)Nc1cccc(NC(=S)NC(=O)c2ccccc2)c1)c1ccccc1 | . | -9% | ? | . | . | 16% | . | -15%[46.1 µM]
Cc1ccc(S(=O)(=O)N(Cc2ccccc2)Cc2ccco2)cc1 | -91% | -18% | -8% | -23% | -2.8% | 0% | 3% | ?
COc1ccc(CCNc2ccc(N3C(=O)CC(C)C3=O)cc2[N+](=O)[O-])cc1OC (stereo not drawn) | . | -21% | ? | -4% | . | ? | . | -28%
O=C(NCCN1CCN(c2ccccc2)CC1)C1CCN(S(=O)(=O)c2cccc3nonc23)CC1 | 0% | 2% | 25%&25% | 0% | -1.5% | ? | -1% | 7%
COC(=O)N1C(=O)[C@](c2ccc(OC)cc2)(C(C)C)N1C(=O)OC | -30% | -9% | . | -4% | . | -22% | . | .
CCCC(C)NC(=O)CSc1nnc(-c2c[nH]c3ccccc23)o1 (stereo not drawn) | . | 2% | 0%[46.1 µM] | -1% | . | -2% | . | -6%
CCOc1ccc2ccccc2c1C(=O)N1CCN(c2ccccc2)CC1 | -33% | 19% | ? | 0% | -5.9% | 0% | -1% | -22%
CC1CCC(=NNC(=O)Cc2cccn2C)CC1 (stereo not drawn) | . | -9% | 2% | 0% | . | -17% | . | 9%
CC(=O)N1c2c(cc(Br)cc2S(=O)(=O)Nc2ccccc2C)CC1C (stereo not drawn) | . | . | ? | . | -1.0% | 29% | 6% | 9%[46.1 µM]
NS(=O)(=O)c1cccc(NC(=O)CSc2nnc(C3CC3)n2-c2ccccc2)c1 | . | 11% | -5%[46.1 µM] | -4% | . | 24% | . | 25%[46.1 µM]
Cc1cc(C)c(NC(=O)COC(=O)/C=C/c2cccs2)c(C)c1 | 5% | -9% | 23% | 1% | -1.8% | -18% | ? | 1%

Source: PubChem
